# miR-21 reporter: miR-21 reporter, rising signal. Potency, µM (highest dose often 38.3 µM), inactives show at the top dose reporter change, positive = more light. HeLa miR-21 FLuc reporter, luciferase, 48 h. 340,000 tested, under 10 active; active = well fitted rising curve with a large enough effect; inconclusive = small, poorly fitted or top-dose-only effect; inactive = no such curve, though single readings can be large or run the other way;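 note: % of control where 0% means no effect; miR-21 action dims this reporter so a rising signal means less miR-21 action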
#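 HeLa cells endogenously expressing miR-21, stably carrying CMV-driven firefly luciferase with a downstream miR-21 binding site, 2000 cells/well. Titrations up to approximately 40 uM, 48 hours; luciferase luminescence read.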
# Starred values were filed as active, the others as inactive; ? = inconclusive. This is a subset; the hit share may differ from the screen's.
cpd | structure | miR-21 reporter
1 | COc1ccc(C2=C(C)C(N3CCC(C(=O)Nc4ccccc4F)CC3)=NS2(=O)=O)cc1 | -4%
2 | CCCSc1ncc(Cl)c(C(=O)Nc2c(C(=O)c3ccc(C)cc3)oc3ccccc23)n1 | -2%
3 | O=C(c1ccc(Cl)cc1)n1nc(-c2ccccc2)nc1NCc1ccco1 | -56%
4 | COc1ccc(CNC(=O)C2CCN(S(=O)(=O)c3cccc(-c4noc(C)n4)c3)CC2)cc1 | 9%
5 | Cc1cccn2c(=O)c3cc(C(=O)NCCc4ccc(S(N)(=O)=O)cc4)n(C)c3nc12 | 5%
6 | Cc1ccc2nc(N(Cc3cccnc3)C(=O)Cc3ccccc3)sc2c1 | -12%
7 | Cc1cccc(N2CCN(C(=O)C3CCN(S(=O)(=O)Cc4ccccc4)CC3)CC2)c1C | -1%
8 | Cc1ccc(C)c(Cn2c(C(C)NC(=O)c3ccccc3)nc3ccccc32)c1 (stereo not drawn) | -2%
9 | COc1ccc(-c2cc(C(F)(F)F)n3nc(-c4ccc(Cl)cc4)cc3n2)cc1OC | -2%
10 | Cc1ccc(C)c(S(=O)(=O)c2nnn3c2nc(N2CCCCC2)c2sccc23)c1 | 9%
11 | Cc1ccccc1CN1C(=O)c2ccccc2S(=O)c2ccc(C(=O)NCc3ccco3)cc21 (stereo not drawn) | -8%
12 | COc1ccc(Cn2c(=O)[nH]c3cc(C(=O)N4CCN(c5cccc(OC)c5)CC4)ccc3c2=O)cc1 | 1%
13 | CCOC(=O)c1cccc(NC(=O)C2Cc3ccccc3N2C(=O)c2ccccc2)c1 (stereo not drawn) | 0%
14 | Cc1ccc(S(=O)(=O)c2cn(CC(=O)Nc3ccc(F)cc3)c3cc4c(cc3c2=O)OCO4)cc1 | 5%
15 | CCCCN(CCCNC(=O)CN1N=C(c2ccc(C)cc2)CCC1=O)c1ccccc1 | 24%
16 | COc1cccc(NC(=O)Cn2cc(S(=O)(=O)Cc3ccccc3F)c3ccccc32)c1 | 14%
17 | COc1ccc(C2C(C(N)=O)=C(C)Nc3nc(-c4ccccc4Cl)nn32)cc1 (stereo not drawn) | -5%
18 | COc1cc(Cl)c(C)cc1NC(=O)c1cc(CN2CCOCC2)on1 | -5%
19 | O=C(Cn1c(-c2cccs2)cc2ccccc21)NCc1ccccc1Br | -1%
20 | Cc1ccc(-c2nc3c4ccccc4n(Cc4cccc(Cl)c4)c(=O)n3n2)cc1 | -15%
21 | COc1cc(CCC(=O)NCc2ccc3c(c2)CCN3C(=O)c2ccccc2)cc(OC)c1OC | 19%
22 | O=C(/C=C/c1ccccc1)Nc1cc(-c2nc3cc(Cl)ccc3o2)ccc1Cl | -38%
23 | COc1ccccc1CNc1ccc(-c2nc(-c3ccccc3C)no2)cc1[N+](=O)[O-] | 6%
24 | CCOC(=O)c1scc(-c2ccc(C)cc2)c1S(=O)(=O)N1CCN(c2ccccc2)CC1 | -2%
25 | COC(=O)c1ccc(C2c3c(-c4ccc(Br)cc4)n[nH]c3C(=O)N2c2ccc(Cl)cc2)cc1 (stereo not drawn) | ?
26 | CC(C)c1ccc(NC(=O)Cn2nnc(C(=O)NCc3cccs3)c2N)cc1 | -5%
27 | COc1ccccc1C(=O)Oc1c(Sc2ccccc2)c(C)nn1-c1ccccc1 | 25%
28 | COc1ccc(Cl)cc1NC(=O)Cn1cnc2c1c(=O)n(C)c(=O)n2C | -1%
29 | CCOc1cc(CNCCSc2nnnn2-c2ccccc2)cc(Cl)c1OC | -1%
30 | CCOC(=O)c1cnn(-c2ccc(OC)cc2)c1C1CCN(C(=O)OC(C)(C)C)CC1 | 27%
31 | CCOc1ccccc1CNC(=O)CCCN1C(=O)c2cccnc2Oc2ccc(Cl)cc21 | -2%
32 | COc1cc(C2CC(=O)c3cnc(N4CCN(CCO)CC4)nc3C2)cc(OC)c1OC (stereo not drawn) | 10%
33 | O=C(NCC(c1cccnc1)N1CCc2ccccc21)c1ccc(F)c(F)c1 (stereo not drawn) | 20%
34 | CCC(C)NC(=O)CSc1nc2cc3c(cc2c(=O)n1CCCCCC(=O)NCc1ccc2c(c1)OCO2)OCO3 (stereo not drawn) | 0%
35 | Cc1csc2nc(COc3ccccc3NC(=O)c3ccc(C(C)(C)C)cc3)cc(=O)n12 | -12%
36 | O=C(NCc1ccc(Cl)cc1)C1CCCN(c2nc3ccccc3n3cccc23)C1 (stereo not drawn) | ?
37 | CCC(=O)Nc1ccc(CC)cc1-c1nc2ccccc2n(Cc2ccccc2)c1=O | 1%
38 | Cc1cccc(CC(=O)NCCc2csc(-c3ccc(C(F)(F)F)cc3)n2)c1 | 0%
39 | CCCCNC(=O)C(CC)Sc1nnc(-c2cccc(F)c2)c(-c2cccc(F)c2)n1 (stereo not drawn) | ?
40 | O=C(CSc1cn(CCNC(=O)c2c(F)cccc2F)c2ccccc12)Nc1ccc(F)cc1 | -7%

# Screen by screen, as entered above.
# Entries 35–39 in miR-21 reporter read -12%, ?, 1%, 0%, ?

# Further results.
cpd | structure | miR-21 reporter
41 | O=C(NCc1cccs1)C1CCN(C(=O)N2CCOc3ccc(Cl)cc32)CC1 | 20%
42 | Cc1cc(C)c2nc(N(Cc3cccnc3)C(=O)CCOc3ccccc3)sc2c1 | 4%
43 | CSc1ccc(CCNC(=O)c2ccc(-c3nc(COc4ccccc4)c(C)o3)cc2)cc1 | -1%
44 | Cc1ccc(-n2cc(C(=O)OCc3ccc(F)c(F)c3)c3ccccc3c2=O)cc1 | 3%
45 | Cc1ccc(S(=O)(=O)n2nc(C)c(S(=O)(=O)N3CCCCCC3)c2C)cc1 | 1%
46 | Cc1ccc(NC(=O)CSc2nnc(COc3ccc(Cl)cc3)o2)cc1 | 13%
47 | CCN(CC)S(=O)(=O)c1ccc2nc(NC(=O)c3cncc(Br)c3)sc2c1 | -5%
48 | CCCN(c1ccc(C(C)C)cc1)S(=O)(=O)c1ccc2c(c1)n(C)c(=O)c(=O)n2C | 4%
49 | CCOC(=O)c1cc(S(=O)(=O)N2CCN(c3ccc(C)cc3C)CC2)[nH]n1 | 24%
50 | Cc1ccc(-c2c(CN3CCN(c4cc(Cl)ccc4C)CC3)csc2C)cc1 | 6%
51 | Cc1cccc(-n2ncc(C(=O)N3CCN(C(=O)c4ccco4)CC3)c2C2CCN(C(=O)OC(C)(C)C)CC2)c1 | 1%
52 | O=C(Nc1cc(F)ccc1F)N1CCC(CN2CCOCC2)CC1 | -9%
53 | COC(=O)c1ccc(NC(=O)CC2C(=O)N(c3cccc(OC)c3)C(=O)N2C(C)C)cc1 (stereo not drawn) | 1%
54 | CCOC(=O)c1cccc(NC(=O)c2cn(-c3cccc(OC)c3)c(=O)c3ccccc23)c1 | 0%
55 | Cc1nn2c(=O)cc(COC(=O)c3cccc(NC(=O)COc4ccc(C)c(C)c4)c3)nc2s1 | 17%
56 | CCCCN(C)CCNC(=O)c1ccc2c(=O)n(CCc3ccccc3)c(=O)[nH]c2c1 | -1%
57 | O=C(Nc1cc(Cl)cc(Cl)c1)c1cc(S(=O)(=O)N2CCc3ccccc3C2)ccc1F | -1%
58 | Cc1cc2ccccc2n2c(SCC(=O)Nc3cccc(C(F)(F)F)c3)nnc12 | 0%
59 | CCOc1cc(C2C(C(=O)OC)=C(C)NC3=C2C(=O)c2ccccc23)cc(Cl)c1O (stereo not drawn) | 2%
60 | Cc1ccc(-c2noc(-c3nnn(CC(=O)Nc4cccc(C(F)(F)F)c4)c3N)n2)cc1 | -22%
61 | Cc1cccc(N2CC(c3nc4ccc(C)cc4[nH]3)CC2=O)c1 (stereo not drawn) | -31%
62 | Fc1ccccc1N1CCN(c2nccn3nc(-c4ccc(Br)cc4)cc23)CC1 | -10%
63 | Cc1ccc(NC(=O)Nc2cccs2)c(C)c1 | -13%
64 | CCOC(=O)c1cc(-c2ccc(F)cc2)n(CCC(=O)NCc2ccc(C)cc2)c1C | 11%
65 | CCOc1cc(C2C(C(=O)OC)=C(C)NC3=C2C(=O)c2ccccc23)c(Br)cc1O (stereo not drawn) | 6%
66 | Cc1cc(S(=O)(=O)Nc2ccc(O)c(Sc3nc4ccccc4s3)c2)ccc1Cl | 19%
67 | COc1cc(C2C(C(=O)Nc3ccc(C)cc3C)=C(C)Nc3nc(SCc4ccccc4)nn32)cc(OC)c1OC (stereo not drawn) | 0%
68 | Cc1cc(-c2nc3ncccc3o2)ccc1NC(=O)c1ccc(Cl)cc1 | -5%
69 | COc1ccccc1Cc1nc2ccccc2nc1SCC(=O)NCc1ccccc1Cl | -2%
70 | Cc1ccc(C)c(Nc2nn3c(=O)c4ccc(C(=O)N(C)Cc5ccccc5)cc4nc3s2)c1 | 0%
71 | CC(=O)c1ccc(N2CCN(c3ncnc4c3cnn4-c3cc(Cl)ccc3C)CC2)cc1 | 13%
72 | COc1ccc(/C=C/C(=O)Nc2nc3n(n2)C(c2ccc(F)cc2)C=C(c2ccccc2)N3)cc1 (stereo not drawn) | 0%
73 | Cc1ccc(-n2ncc(C(=O)N3CCCCC3)c2C2CCN(C(=O)OC(C)(C)C)CC2)c(C)c1 | 1%
74 | Cc1ccc(NC(=O)Cn2nnc(C(=O)NCCc3ccccc3)c2N)cc1 | -40%
75 | COc1cc(/C=C(\C#N)c2nc3ccccc3c(=O)[nH]2)cc(OC)c1OC | 1%
76 | CC(=O)c1cccc(NS(=O)(=O)c2ccc3c(c2)NC(=O)CC(=O)N3)c1 | 2%
77 | Cc1ccccc1C(=O)Nc1cccc(C(=O)OCc2cc(=O)n3c4c(sc3n2)CCCC4)c1 | -5%
78 | Cn1cnc(S(=O)(=O)N2CCCC(C(=O)NCc3ccccc3Cl)C2)c1 (stereo not drawn) | 1%
79 | CCCNC(=O)c1cnn(-c2ccc(C)c(C)c2)c1C1CCN(C(=O)OC(C)(C)C)CC1 | 9%
80 | COc1cc(OC)cc(C(=O)N2CCN(C(=O)COc3ccc(C)cc3)CC2)c1 | -7%
81 | Cc1ccc(Cl)cc1N1CCN(C(=O)C2CCN(Cc3nc(-c4ccc(Cl)cc4)oc3C)CC2)CC1 | 9%
82 | Cc1ccccc1CNC(=O)Cn1cc2c(n1)-c1c(oc(C(=O)N3CCCC3)c1C)CC2 | ?
83 | CC1CCc2c(cc(-c3ccccc3)n2-c2ccc(C(=O)NC(C)C)cc2)C1 (stereo not drawn) | -7%
84 | CCOc1ccc(-n2c(SCC(=O)NCC3CCCO3)nc3c([nH]c4ccccc43)c2=O)cc1 (stereo not drawn) | 5%
85 | O=C(NCCc1ccccc1)c1ccc2c(c1)CCN2S(=O)(=O)c1ccc(Cl)cc1 | 3%
86 | COc1ccc(CNC(=O)CCn2cccn2)cc1 | -5%
87 | COc1cccc(C2CC(=O)Nc3c2c(=O)n(C)c2ncnn32)c1OC (stereo not drawn) | -12%
88 | Cc1ccc(-n2ncc3c(NCCCn4ccnc4)ncnc32)cc1Cl | -44%
89 | O=C(c1cc(=O)c2cc(Cl)ccc2o1)N(Cc1ccccc1)C1CCS(=O)(=O)C1 (stereo not drawn) | -7%
90 | CC1CCCN(S(=O)(=O)c2ccc(N3CCCCS3(=O)=O)cc2)C1 (stereo not drawn) | 3%
91 | Cc1cccc(NC(=O)C(Cc2ccccc2)NS(=O)(=O)c2ccc3c(c2)c(=O)n(C)c(=O)n3C)c1 (stereo not drawn) | ?
92 | O=C(Nc1c(O)c2ccccc2oc1=O)c1ccccc1Cl | -3%
93 | O=C(Oc1ccc(F)cc1)c1nc(SCc2ccccc2F)ncc1Cl | -1%
94 | Cc1cc(-c2ccc(S(=O)(=O)Nc3cc(Cl)ccc3C)s2)on1 | 22%
95 | COc1ccc(Nc2nc3ccc(C)cc3n3cnnc23)cc1Cl | -9%
96 | Cc1cc(C)c2nc(N(Cc3cccnc3)C(=O)Cc3ccccc3)sc2c1 | -1%
97 | Cc1ccc(C)c(CN2C(=O)c3ccccc3S(=O)(=O)c3ccc(C(=O)N4CCN(c5ccccn5)CC4)cc32)c1 | 19%
98 | CC(C)(C)OC(=O)N1CCC(c2c(C(=O)NCCN3CCOCC3)cnn2-c2cccc(F)c2)CC1 | 2%
99 | CCOc1ccccc1N(C)C(=O)Cn1cnc2onc(-c3ccc(F)cc3)c2c1=O | -4%
100 | CCc1ccc(Cn2c(CNS(=O)(=O)c3ccc4c(c3)CCCC4)nc3cccnc32)cc1 | -6%

# Some of the entries above in a different format:
item | miR-21 reporter | smiles
80 | -7% | COc1cc(OC)cc(C(=O)N2CCN(C(=O)COc3ccc(C)cc3)CC2)c1
81 | 9% | Cc1ccc(Cl)cc1N1CCN(C(=O)C2CCN(Cc3nc(-c4ccc(Cl)cc4)oc3C)CC2)CC1

# (list continues)
cpd | structure | miR-21 reporter
101 | CC(C)c1nn2c(=O)cc(COC(=O)c3ccccc3NC(=O)COc3ccccc3)nc2s1 | -4%
102 | CCC(=O)N1CCc2cc(S(=O)(=O)NC(C(=O)NCCc3ccc(C)cc3)C(C)C)ccc21 (stereo not drawn) | -2%
103 | Cc1ccc(NC(=O)CSc2nc3c([nH]c4ccccc43)c(=O)n2-c2ccccc2)cc1Cl | ?
104 | CCc1ccc(Cn2c(CNS(=O)(=O)c3ccc([N+](=O)[O-])cc3)nc3cccnc32)cc1 | -2%
105 | Cc1ccc(C(=O)OCc2cc(=O)n3nc(CC(C)C)sc3n2)cc1 | 3%
106 | COc1ccc(CCC(=O)NCCc2csc(-c3ccc(C(F)(F)F)cc3)n2)cc1 | -4%
107 | C#CC(C)(CC)NC(=O)Cn1nnc(-c2ccc(OCc3ccccc3C)cc2)n1 (stereo not drawn) | 3%
108 | Cc1cc(-n2c(C)nc3ccccc3c2=O)ccc1NC(=O)c1ccccc1[N+](=O)[O-] | -1%

# Of the compounds above, these contain a CF3 group.
cpd | structure | miR-21 reporter
9 | COc1ccc(-c2cc(C(F)(F)F)n3nc(-c4ccc(Cl)cc4)cc3n2)cc1OC | -2%
38 | Cc1cccc(CC(=O)NCCc2csc(-c3ccc(C(F)(F)F)cc3)n2)c1 | 0%
58 | Cc1cc2ccccc2n2c(SCC(=O)Nc3cccc(C(F)(F)F)c3)nnc12 | 0%
60 | Cc1ccc(-c2noc(-c3nnn(CC(=O)Nc4cccc(C(F)(F)F)c4)c3N)n2)cc1 | -22%
106 | COc1ccc(CCC(=O)NCCc2csc(-c3ccc(C(F)(F)F)cc3)n2)cc1 | -4%

# Screening results from PubChem.
